Cruzain inh Det = inhibitors of Trypanosoma cruzi cruzain with detergent | P25779 | purified cruzain, Z-FR-AMC fluorescence, 0.01% Triton | Potency, µM, for the others: max response, negative = inhibition, actives largely listed as inhibitors | 200,000 compounds, 0.43% hits | AID 1478; active = well fitted curve in the direction sought with a large enough effect; inconclusive = small, poorly fitted or top-dose-only effect, or another doubt; inactive = no such curve, though single readings can be large; an effect the other way counts as inactive or inconclusive;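 note: plate controls were neutral wells for no effect and buffer without enzyme for full effect; nearly all actives have a fitted effect of over 40% in size; top concentration of the series not given in the record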
Target sequence (P25779 123-467 limits assumed): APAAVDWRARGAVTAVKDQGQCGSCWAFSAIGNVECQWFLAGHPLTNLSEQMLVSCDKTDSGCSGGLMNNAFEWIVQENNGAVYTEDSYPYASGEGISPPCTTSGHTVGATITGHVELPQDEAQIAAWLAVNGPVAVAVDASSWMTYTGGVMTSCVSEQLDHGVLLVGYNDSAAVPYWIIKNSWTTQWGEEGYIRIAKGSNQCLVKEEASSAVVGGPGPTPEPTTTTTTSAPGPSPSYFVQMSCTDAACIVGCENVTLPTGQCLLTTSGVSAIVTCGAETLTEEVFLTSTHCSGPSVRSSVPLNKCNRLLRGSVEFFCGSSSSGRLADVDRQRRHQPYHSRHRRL
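Detergent-containing arm of a paired screen for aggregation-based inhibition: 0.01% Triton X-100 present. Cruzain at 1.5 nM cleaved 2 uM Z-FR-AMC at pH 5.5 with 5 mM DTT; AMC fluorescence gain over 60 s measured activity.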
NS1 inh = influenza NS1 inhibition | S. cerevisiae slowed by influenza A NS1, growth recovery by OD600 | AID 2326 | Potency, µM (doses to about 46.1 µM), without a hit: at the highest dose activity, positive = more growth | 270,000 compounds, 0.4% hits; note: actives are rising curves; nearly all actives have a fitted effect of over 50% in size
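S. cerevisiae expressing influenza A NS1, grown in glucose, washed, then diluted 1:100 into pH 6.0 -URA galactose medium with 23 nl compound. Growth recovery read as OD600; NS1-free strain serves as control.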
StopGo reporter = FMDV 2A StopGo reporter, luciferase signal; human cells with a luciferase reporter of 2A StopGo recoding; control for the full effect not named in the record; Potency, µM (highest dose often 57.9 µM), for inactives: at the top dose signal change, negative = less light; 410,000 compounds, 1.2% hits; AID 1159524; active = well fitted falling curve with a large enough effect; inconclusive = small, poorly fitted or top-dose-only effect; inactive = no such curve, though single readings can be large or run the other way; tested in HEK293T cells; note: % is set by controls: 0 for no effect and ±100 for the full control effect; nearly all actives have a fitted effect of over 45% in size; luciferase light after 4 h
LASV entry inh = blocks Lassa virus binding to or entry into cells; Lassa virus pseudotype entry inhibition, cell reporter; control for the full effect not named in the record; Potency, µM (top dose mostly 37.9 µM), without a hit: at the highest dose activity change, negative = inhibition, usual class: inhibitors; 300,000 compounds, 1.2% hits; active means well fitted inhibition curve with a large enough effect; inconclusive means small, poorly fitted or top-dose-only effect, or effect the other way; inactive means flat fitted curve, though single readings scatter; tested in HEK293 cells; note: % is set by controls: 0 for no effect and ±100 for the full control effect; nearly all actives have a fitted effect of over 50% in size; luciferase read-out
SARS PLpro yeast = inhibitors of SARS-CoV papain-like protease in yeast; Potency, µM (highest dose often 32.9 µM), for inactives: at the top dose activity, positive = growth rescue; AID 485353; 330,000 compounds, 0.19% hits; S. cerevisiae expressing SARS-CoV PLpro, growth rescue; control for the full effect not named in the record; note: 0% is about no effect; nearly all actives have a fitted effect of over 55% in size; growth read by luminescence after 48 h
Cruzain noTriton = cruzain (T. cruzi) inhibition without detergent; P25779; purified cruzain, Z-FR-AMC fluorescence, no detergent; Potency, µM, without a hit: max response, negative = inhibition, usual class: inhibitors; 200,000 compounds, 2.3% hits; AID 1476; active = well fitted curve in the direction sought with a large enough effect; inconclusive = small, poorly fitted or top-dose-only effect, or another doubt; inactive = no such curve, though single readings can be large; an effect the other way counts as inactive or inconclusive;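 note: plate controls were enzyme without inhibitor for no effect and buffer without enzyme for full effect; nearly all actives have a fitted effect of over 40% in size; top concentration of the series not given in the record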
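Detergent-free condition (0.00005% Triton X-100) in acetate buffer pH 5.5 with DTT. 1.5 nM enzyme and compound were pre-mixed 15 min, then 2 uM Z-FR-AMC substrate added; reaction progress from fluorescence change between first and third reads (60 s).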
Marburg entry inh = Marburg virus entry inhibition | Marburg virus pseudotyped entry inhibition, cell reporter; control for the full effect not named in the record; about a third of the inactives were read at about 46 µM | Potency, µM (doses to about 37.8 µM), for the others: at the highest dose activity change, negative = inhibition, actives largely listed as inhibitors | 300,000 compounds, 1.8% hits | AID 540276; active = well fitted inhibition curve with a large enough effect; inconclusive = small, poorly fitted or top-dose-only effect, or effect the other way; inactive = flat fitted curve, though single readings scatter; tested in HEK293 cells; about a fifth of its hits are not listed in these tables; note: % is set by controls: 0 for no effect and ±100 for the full control effect; luciferase read-out
RE007 growth inh = less growth of the S. pombe RE007 Vpr strain. S. pombe RE007 Vpr strain, BacTiter-Glo ATP luminescence, 24 h; control for the full effect not named in the record. Potency, µM (top dose mostly 92.2 µM), inactives show at the highest dose activity change, negative = less growth. 360,000 compounds, 0.21% hits; active = well fitted falling curve with a large enough effect; inconclusive = small, poorly fitted or top-dose-only effect; inactive = no such curve, though single readings can be large or run the other way;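 note: % is set by controls: 0 for no effect and ±100 for the full control effect; nearly all actives have a fitted effect of over 50% in size; the assay follows cell death caused by Vpr and the record does not say whether a fall means rescue or toxicity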
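Fission yeast RE007 carrying one integrated HIV-1 vpr copy, seeded at OD 0.01 in PMG+AL medium with 23 nL pinned compound. Grown 24 h at 30 degrees; viability read by BacTiter-Glo luminescence after 5 min.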
* marks the source's active call; other numbers are inactive results; ? = inconclusive; / = no result given; & = joins results of further samples; [ ] = dose if it differs, or a comment. Unless noted, calls come from the whole dose curve; as a rule, active means well fitted rising curve with a large enough effect; inconclusive means small, poorly fitted or top-dose-only effect; inactive means no such curve, though single readings can be large or run the other way. Potency is the fitted concentration of half-maximal effect. This is a random part of the collection. Share with any hit: about 4.8%.

Order of results: Cruzain inh Det	NS1 inh	StopGo reporter	LASV entry inh	SARS PLpro yeast	Cruzain noTriton	Marburg entry inh	RE007 growth inh
(1) Cc1cc2[nH]c(=O)c(=O)[nH]c2cc1S(=O)(=O)Nc1cccc(F)c1
→ /	-6.9%	9.2%	/	?	/	/	13.2%
(2) CCc1ccc(-c2cn3c(n2)SCC3)cc1
→ /	2.0%	-22.2%	-15.3%[46.1 µM]	-1.6%	/	?	-8.3%
(3) Cc1ccccc1Nc1nc(N)nc(COC(=O)c2cccc(S(=O)(=O)N(C)C)c2)n1
→ -2.0%	-27.4%	?	-14.4%	-2.1%	13.2%	6.9%	8.3%
(4) O=C(O)c1ccc(Sc2nnc(-c3cccc(Br)c3)o2)c([N+](=O)[O-])c1
→ -8.8%	6.0%	-14.7%	-3.2%	-10.7%	15.6%	3.1%	7.3%
(5) CS(=O)(=O)Nc1nnc(CCc2ccccc2)s1
→ /	-10.8%	-1.4%	17.5%[46.1 µM]	-5.1%	/	6.7%[46.1 µM]	-8.8%
(6) CCSc1oc(-c2ccco2)nc1S(=O)(=O)c1ccc(Br)cc1
→ -11.2%	/	-13.4%	6.6%[46.1 µM]	/	6.0%	?	/
(7) O=C(NCCc1ccccc1)c1ccc(CSc2nc3ccncc3n2Cc2ccccc2F)cc1
→ -8.3%	/	-13.3%	/	/	16.8%	?	/
(8) O=C(CNCc1ccc(F)cc1)Nc1ccc(C(=O)N2CCCCC2)cc1
→ /	-20.2%	3.5%	10.9%	0.4%	/	-9.5%[46.1 µM]	-1.7%
(9) CSc1nnc(-c2ccccc2)n1C
→ 0.1%	6.5%	/	0.3%	6.0%	19.4%	18.9%	7.4%
(10) COc1cc2c(cc1OC)C(=S)NC(C)(C)C2
→ -1.8%	-21.3%	/	0.1%	2.5%	-5.5%	8.9%	11.6%

Overlap with the part before: 6 entries, followed by the next part.
Order of results: Cruzain inh Det	NS1 inh	StopGo reporter	LASV entry inh	SARS PLpro yeast	Cruzain noTriton	Marburg entry inh	RE007 growth inh
(5) CS(=O)(=O)Nc1nnc(CCc2ccccc2)s1
→ /	-10.8%	-1.4%	17.5%[46.1 µM]	-5.1%	/	6.7%[46.1 µM]	-8.8%
(6) CCSc1oc(-c2ccco2)nc1S(=O)(=O)c1ccc(Br)cc1
→ -11.2%	/	-13.4%	6.6%[46.1 µM]	/	6.0%	?	/
(7) O=C(NCCc1ccccc1)c1ccc(CSc2nc3ccncc3n2Cc2ccccc2F)cc1
→ -8.3%	/	-13.3%	/	/	16.8%	?	/
(8) O=C(CNCc1ccc(F)cc1)Nc1ccc(C(=O)N2CCCCC2)cc1
→ /	-20.2%	3.5%	10.9%	0.4%	/	-9.5%[46.1 µM]	-1.7%
(9) CSc1nnc(-c2ccccc2)n1C
→ 0.1%	6.5%	/	0.3%	6.0%	19.4%	18.9%	7.4%
(10) COc1cc2c(cc1OC)C(=S)NC(C)(C)C2
→ -1.8%	-21.3%	/	0.1%	2.5%	-5.5%	8.9%	11.6%
(11) C=CCn1c(=S)[nH]c2sccc2c1=O
→ /	4.3%	-10.2%	12.7%	-2.8%	/	28.4%[46.1 µM]	14.9%
(12) COc1ccc(OC)c2sc(NC(=O)c3ccc(Br)s3)nc12
→ -4.6%	2.5%	-12.5%	/	4.8%	15.8µM*	/	-10.7%
(13) CCCOc1ccc(-c2nc(OC)c3ccccc3n2)cc1
→ -5.5%	-16.7%	20.4%	5.4%	-16.9%	-10.1%	?	5.7%
(14) O=C(Nc1cccnc1)c1ccco1
→ 4.8%	-9.6%	/	2.3%	8.1%	2.9%	-3.7%	-15.0%
(15) Cn1nc([N+](=O)[O-])nc1Sc1nnnn1-c1cccc(C(=O)O)c1
→ /	-0.1%	-12.5%	/	0.1%	/	/	12.9%
(16) CCOC(=O)C1CCCN(C(=O)c2ccc3c(c2)sc2nc(-c4ccc(CC)cc4)cn23)C1 (stereo not drawn)
→ -2.0%	/	14.1µM*	-10.2%[46.1 µM]	/	1.4%	/	/
(17) N#CCC(=O)N/N=C/c1cc(Br)ccc1OCc1cccc2ccccc12
→ /	18.7%	-0.6%	/	-0.7%	/	/	8.7%
(18) C=CCNc1sc(C(=O)c2ccc(C)cc2)c(N)c1C#N
→ -6.6%	9.1%	-18.0%	-1.2%	6.1%	-0.6%	-3.9%[46.1 µM]	13.8%
(19) COc1ccccc1NC(=O)C1=C(C)Nc2nnnn2C1c1ccccn1 (stereo not drawn)
→ -1.2%	-0.7%	10.4%	18.1%	2.9%	2.5%	11.9%	?
(20) Cc1nnc(SCc2ccccc2)c2cc3sccc3n12
→ -6.1%	/	16.4%	2.8%[46.1 µM]	/	?	/	/
(21) COc1ccc2cc(S(=O)(=O)NCc3cccnc3)ccc2c1
→ /	0.5%	14.2%	-24.2%	-2.6%	/	-16.2%[46.1 µM]	-3.2%
(22) CC(C)Sc1nnc(SCC(=O)NCCCN2CCCC2=O)s1
→ /	/	-13.8%	18.3%	-0.1%	/	8.6%	-6.1%
(23) CCOc1ccc(CNC(=O)Cn2ccc3cc(S(=O)(=O)N4CCCCC4)ccc32)cc1
→ -7.6%	/	-9.3%	-1.3%[46.1 µM]	/	-28.0%	/	/
(24) Cc1ccc(C(=O)N2CCN(Cc3ccc4c(c3)OCO4)CC2)cc1[N+](=O)[O-]
→ /	2.8%	-36.2%	/	0.5%	/	?	-0.9%
(25) O=S(=O)(O)c1cccc2c(N=Nc3ccc(O)c4ncccc34)cccc12
→ /	6.7%	?	/	?	/	2.3%	-4.5%
(26) Cc1cc(C)n(CCNC(=O)CC2C(=O)NCCN2Cc2ccc(C)o2)n1 (stereo not drawn)
→ /	0.1%	-20.8%	?	0.8%	/	-1.2%[46.1 µM]	-10.5%
(27) CCn1nc(C(=O)OCC(=O)c2cc(C)n(Cc3cccs3)c2C)c2ccccc2c1=O
→ -2.3%	-5.8%	12.5%	6.3%	0.0%	?	?	5.3%
(28) O=c1[nH]c2ccccc2s1
→ 1.4%	15.9%	-3.3%	6.5%	-10.4%	7.5%	6.5%&6.5%	10.0%
(29) Cc1cccc(-n2c(/C=C/c3cccc4ccccc34)nc3ccccc3c2=O)c1
→ 0.2%	/	?	15.9%[46.1 µM]	/	9.9%	/	/
(30) CCOC(=O)c1nc(Nc2cccc(C)c2)c2ccccc2n1
→ -10.7%	/	?	-19.0%[46.1 µM]	-3.0%	2.5%	?	-7.6%
(31) COc1ccc(NC(=O)C(C)N2c3cccc4cccc(c34)S2(=O)=O)cc1 (stereo not drawn)
→ -8.7%	-10.1%	-3.1%	0.1%	4.4%	-3.1%	-19.9%	22.1%
(32) O=C1CSC(c2ccccc2Cl)N1 (stereo not drawn)
→ /	/	-12.2%	5.4%	-7.1%	/	26.8%[46.1 µM]	12.7%
(33) CCOc1ccc(N/C(C)=C\C(=O)c2ccc3c(c2)OCCO3)cc1
→ /	1.8%	8.8%	0.1%	0.3%	/	?	3.1%
(34) COc1ccc(OCCCCn2c(CO)nc3ccccc32)cc1
→ /	-3.9%	-23.5%	1.0%[46.1 µM]	-1.8%	/	?	-5.6%
(35) CN1CCN(C(=O)CSc2nc(-c3ccco3)cc(C(F)(F)F)n2)CC1
→ /	/	-13.1%	14.4%[46.1 µM]	-0.6%	/	-3.1%[46.1 µM]	3.8%
(36) COc1cc(NC(=O)c2ccc(COc3ccccc3Br)o2)cc(OC)c1OC
→ -13.0%	-45.1%	-23.7%	?	-3.7%	?	-18.9%	17.6%
(37) O=C1CN(C(=O)COC(=O)CCc2ccccc2)c2ccccc2N1
→ /	/	-2.3%	0.0%	-0.1%	/	-2.8%	7.5%
(38) CN(C)S(=O)(=O)c1ccc2c(c1)N(CC(=O)N1CCN(c3cccc(Cl)c3)CC1)CCS2
→ -2.4%	/	?	-0.9%[46.1 µM]	/	2.4%	/	/
(39) CC1CCc2noc(NC(=O)c3ccc([N+](=O)[O-])cc3)c2C1 (stereo not drawn)
→ -0.6%	/	25.9%	17.7%[46.1 µM]	/	3.9%	20.9%[46.1 µM]	/
(40) Cc1ccc2nc(SCC(=O)NC(=O)NCc3ccco3)[nH]c2c1
→ 0.7%	2.9%	12.0%	-9.0%	0.5%	-3.7%	14.4%	9.0%
(41) COc1ccc(OC)c(/C=C2\SC(N3CCCCC3)=NC2=O)c1
→ /	-7.4%	-0.4%	16.1%[46.1 µM]	-2.4%	/	?	-8.3%
(42) COC(=O)c1cc(Br)c(=O)n(CCN2CCOCC2)c1
→ -2.9%	-1.6%	-22.8%	4.9%	-4.1%	-1.5%	10.1%	7.4%
(43) O=C(Nc1c(-c2ccccc2)nc2ccccn12)c1ccccc1F
→ -2.2%	3.3%	-9.4%&-2.7%	-9.4%[46.1 µM]	0.4%	0.6%	?	-5.1%
(44) O=C(Nc1ccccn1)c1ccc(S(=O)(=O)N2CCCCC2)cc1
→ /	/	26.9%	-29.3%	-0.9%	/	?	6.7%
(45) Cc1ccc(NC(=O)c2oc3ccccc3c2C)nc1
→ /	-3.1%	15.2%	-23.1%[46.1 µM]	2.6%	/	?	-21.6%
(46) COc1ccnc(-n2cccc2C#N)c1C#N
→ /	12.2%	-19.8%	3.0%	0.7%	/	-18.9%[46.1 µM]	7.2%
(47) CCOC(=O)c1c(C)oc2nc(C)nc(NCCCN3CCN(c4cc(C)ccc4C)CC3)c12
→ -0.6%	/	-17.5%	?	/	-6.4%	/	/
(48) Cc1cc(C)n(C(=O)CCN2C(=O)c3ccccc3C2=O)n1
→ 3.4%	-7.9%	/	-2.8%	5.6%	2.5%	-2.7%	19.8%
(49) O=C(CCS(=O)(=O)c1ccc(Br)s1)NCc1ccc2c(c1)OCO2
→ -0.8%	1.2%	5.8%	13.0%	-4.1%	-6.6%	2.9%	4.8%
(50) COc1cc(/C=N/OCC(=O)NC23CC4CC(CC(C4)C2)C3)ccc1OCc1ccccc1
→ -4.9%	-8.5%	0.0%	?	-11.2%	-5.8%	-28.7%	4.6%

Screening results (PubChem)
